Assay outcomes: PubChem BioAssay, National Center for Advancing Translational Sciences (NCATS)
PMP22 txn prim = Cell-based coincidence reporter assay to measure PMP22 gene transcription in S16 Pmp22-F2sN cells - Primary screen; Potency, µM (titrated, usually from 57.5 µM), for inactives: at the top dose activity change, negative = inhibition, most hits filed as inhibitors; 43,000 compounds, 2% hits; S16 Pmp22-F2sN Schwann cells (luciferase reporters placed in the Pmp22 gene), FLuc/NLuc coincidence luminescence, 24 h; active = clear falling dose curves in both reporters; inconclusive = both reporters move, but less clearly or upward; inactive = either reporter flat; the % is the NLuc reporter signal; note: % is set by controls: 0 for no effect and ±100 for the full control effect; some results filed as inactive show a strong effect at the top dose
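S16 Schwann cells carrying FLuc/NLuc coincidence reporter in the Pmp22 3' UTR treated with compound 24 h at 37C; FLuc then NLuc luminescence read sequentially by dual-luciferase reagents.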
HTT prom inh = Primary qHTS for Identification of Small Molecule Inhibitors of Huntingtin Promoter Activity; HEK293 HTT promoter firefly luciferase reporter (activity 0% = vehicle and -100% = no light), 24 h; Potency, µM (titrated, usually from 57.5 µM), inactives show at the top dose activity change, negative = inhibition, most hits filed as inhibitors; 48,000 compounds, 0.93% hits; active = well fitted inhibition curve with a large enough effect; inconclusive = small, poorly fitted or top-dose-only effect; inactive = no such curve, though single readings can be large or run the other way; note: nearly all actives have a fitted effect of over 50% in size
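Quantitative HTS used concentration series of up to 57.5 uM final on HEK293 luciferase reporter cells, 24 h at 37 degrees C. Readout was Dual-Glo firefly luminescence.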
An asterisk follows results filed as active; u = inconclusive; x = not tested or not shown. Potency is the fitted concentration of half-maximal effect.

SMILES | PMP22 txn prim | HTT prom inh
COc1ccccc1-c1nnc(C2CCN(C(=O)c3ccc(Cl)cc3)CC2)o1 | -1.2% | -12.2%
Cc1cc(C)cc(NC(=O)COc2cccc3c(=O)n(C)ccc23)c1 | u | -12.8%
COc1cccc(CNC(=O)CSc2nnc(C)c3c(C)n(-c4ccccc4)nc23)c1 | -22.0% | -19.8%
CCc1ccccc1NC(=O)[C@@H](c1ccccc1)N1Cc2ccccc2C1=O | 3.1% | -16.8%
CCSc1nc2ccccc2c(OCc2ccc(Cl)cc2)c1C(=O)OC | u | -17.1%
CCCN(CCC)CCNC(=O)CS(=O)Cc1nc(-c2ccc(OC)c(OC)c2)oc1C (stereo not given) | -0.1% | -4.3%
CN(C)c1ccc(CNC(=O)C2CCN(C(=O)c3ccc(-n4ccc5ccccc54)s3)CC2)cc1 | -101.1% | u
O=C(NCc1cccs1)c1ccc(CSc2nc3ccncc3n2Cc2ccccc2F)cc1 | -21.1% | 12.1%
Cc1cccc(CSc2nc3cccnc3n2Cc2ccc(C(=O)NCc3ccco3)cc2)c1 | -48.9% | u
Cc1ccccc1CNC(=O)c1nn(-c2ccccc2F)nc1CO | -8.9% | -25.8%
Cn1nc(-c2ccc(OCC(=O)Nc3cccc(C(F)(F)F)c3)cc2)c2ccccc2c1=O | u | u
COc1ccc(C)cc1NC(=O)Cc1ccc(NC(=O)N2CCCCc3ccccc32)cc1 | -5.9% | -25.0%
CCOC(=O)c1cc(S(=O)(=O)N2CCN(c3cccc(C)c3C)CC2)[nH]n1 | 4.3% | -13.8%
CCS(=O)(=O)c1cccc(C(=O)Nc2ccc(-c3nc4ccccc4s3)c(O)c2)c1 | -73.1% | u
CCOc1ccc(C(=O)Nc2c(C)nc(Nc3ccccc3)nc2Nc2ccccc2)cc1OCC | u | u
CCC(=O)N1c2ccccc2CC1C(=O)NCc1ccc(CC)cc1 (stereo not given) | 1.5% | -7.0%
Cc1oc(-c2ccc(C(=O)N(C)Cc3ccccc3)cc2)nc1CN1CCc2ccccc21 | u | 8.91µM*
Cc1ccccc1NC(=O)COc1ccc2oc3c(c2c1)CCCC3 | -10.8% | 4.7%
COc1ccc(-c2nc3cc(NC(=O)Cc4ccc(Cl)cc4)ccc3o2)cc1OC | u | u
Cc1cccc(CS(=O)(=O)Cc2ccc(C(=O)NCCc3ccccc3)o2)c1 | -28.2% | -11.8%
COc1cc(NC(=O)Cn2cc(S(=O)(=O)N3CCC(C)CC3)c3ccccc3c2=O)cc(OC)c1OC | u | u
CCOc1ccc(CCNC(=O)c2cc3c(=O)n(CC)c4ccccc4c3s2)cc1OCC | 3.3% | 3.5%
COC(=O)c1ccc(OCC2c3cc(OC)c(OC)cc3CCN2C(=O)C(C)C)cc1 (stereo not given) | 21.8% | -28.3%
Cc1ccc2nc(Cl)c3cc(C(=O)NCCCN4CCC(C)CC4)sc3c2c1 | -0.5% | 2.3%
Cc1ccc(CNC(=O)c2cnc(N3CCCCC3)c3ccccc23)cc1 | -40.2% | u

Some of these compounds in order of the HTT prom inh value, largest number first.
Molecule	HTT prom inh
Cc1ccc2nc(Cl)c3cc(C(=O)NCCCN4CCC(C)CC4)sc3c2c1	2.3%
Cc1cccc(CS(=O)(=O)Cc2ccc(C(=O)NCCc3ccccc3)o2)c1	-11.8%
CCSc1nc2ccccc2c(OCc2ccc(Cl)cc2)c1C(=O)OC	-17.1%
Cc1ccccc1CNC(=O)c1nn(-c2ccccc2F)nc1CO	-25.8%

Continued.
SMILES | PMP22 txn prim | HTT prom inh
CCCCc1ccc(NC(=O)CSc2nnc3[nH]c(=O)cc(C)n23)cc1 | -6.9% | 0.4%
CCOC(=O)c1ccc(NC(=O)c2c(NCc3cc(OC)c(OC)cc3OC)sc3c2CCCC3)cc1 | -93.0% | u
Cc1cccc(OCc2cc(=O)n3c(-c4ccccc4)csc3n2)c1C | -62.8% | 11.2%
Cc1ccc(NC(=O)CC2Oc3ccccc3NC2=O)cc1C (stereo not given) | -2.6% | 1.0%
CCOC(=O)COc1ccc(C)cc1C(=O)c1ccn2nc(-c3ccc(F)cc3)cc2n1 | 17.9µM* | -10.6%
CCc1ccc(NC(=O)CN(c2ccc(Cl)cc2)S(=O)(=O)c2ccsc2C(=O)OC)cc1 | u | u
Cc1ccc(NC(=O)Cn2c(=O)n(Cc3nc(-c4ccccc4)no3)c(=O)c3cc4c(cc32)OCO4)c(C)c1 | 10.7% | 2.6%
COc1cc2c(Nc3ccc(Cl)c(Cl)c3F)ncnc2cc1OCC1C[C@@H]2CN(C)C[C@H]2C1 | x | u
CCCCCCCCCCCCCCCCOP(=O)([O-])OCC[N+](C)(C)C | x | -8.1%
COc1cc(NC(=O)Cn2cc(C(=O)c3ccc(F)cc3)c(=O)c3ccc(C)nc32)cc(OC)c1 | u | u
Cc1nnc(N2CCC(C(=O)NCc3cccc(Cl)c3)CC2)c2nn(-c3ccccc3)c(C)c12 | u | u
CCOC(=O)c1cc(-c2ccc(C)cc2)n(CC(=O)Nc2ccccc2F)c1C | u | -15.2%
Cc1cnc2c(c1SCC(=O)Nc1ccc(F)cc1F)c(=O)n(C)c(=O)n2C | 1.1% | -14.1%
CCCCN(C)CCNC(=O)c1nn(-c2ccc(OC)cc2)c(=O)c2c1c1ccccc1n2C | u | -11.1%
Cc1cc(C)n(C(C)CC(=O)NCc2ccc(N(C)C)cc2)n1 (stereo not given) | -4.2% | -8.2%
Cc1ccc(Sc2c(C(=O)NCc3ccccc3C)[nH]c3ccccc23)cc1 | -4.8% | 3.2%
COc1ccc(NC(=O)CSc2nc3ccccc3[nH]2)cc1 | -5.6% | 2.8%
CCc1ccc(C2C(C(=O)Nc3ccccc3C)=C(C)Nc3nc(SCc4cccc(OC)c4)nn32)cc1 (stereo not given) | 0.0% | -4.1%
C1N2CN3CN1CN(C2)C3 | x | 0.9%
Cc1nc(N)nc(N)c1-c1ccc(Cl)c(Cl)c1 | x | u
CCOc1ccc(C(=O)NCc2ccc3c(c2)CCN3C(=O)c2ccccc2)cc1 | u | u
CC(C)c1cnc2c(c1SCC(=O)O)c(=O)n(C)c(=O)n2C | -20.4% | 2.1%
COc1ccc(S(=O)(=O)c2cn(C)c3ccc(C)cc3c2=O)cc1 | 9.5% | -15.7%
CCc1cccc(C)c1NC(=O)CN1C(=O)c2cccc3cccc1c23 | -4.9% | -12.6%
COc1ccc(Cn2c(C(=O)O)c(CNCCc3ccccc3Cl)c3ccc(C)cc32)cc1 | u | u

Profiles as entered above. Values in the order: PMP22 txn prim	HTT prom inh
`Cc1nnc(N2CCC(C(=O)NCc3cccc(Cl)c3)CC2)c2nn(-c3ccccc3)c(C)c12` is listed with u	u
`COc1cc(NC(=O)Cn2cc(C(=O)c3ccc(F)cc3)c(=O)c3ccc(C)nc32)cc(OC)c1` is listed with u	u
`CCCCc1ccc(NC(=O)CSc2nnc3[nH]c(=O)cc(C)n23)cc1` is listed with -6.9%	0.4%

Carrying on.
SMILES | PMP22 txn prim | HTT prom inh
CCC(=O)N1CCc2cc(Br)cc(S(=O)(=O)CCC(=O)Nc3cccc(C)c3C)c21 | 9.8% | -5.2%
COc1ccc2[nH]c3c(c2c1)CCN(C(=O)c1cccc(Cl)c1)C3c1ccc(F)cc1 (stereo not given) | -6.6% | -23.6%
COc1cc(CN(C(=O)COc2ccccc2Cl)c2ccccn2)cc(OC)c1OC | -14.2% | -27.1%
COc1cccc(C2NC(=O)c3n[nH]c(-c4cccs4)c32)c1 (stereo not given) | 1.9% | -13.2%
O=C(O)c1ccc(Nc2nc(-c3ccccc3)c3cc(Br)ccc3n2)cc1 | u | -18.7%
Cc1ccc(NC(=O)C2CCCN(S(=O)(=O)c3c(C)n[nH]c3C)C2)cc1C (stereo not given) | 3.1% | -14.5%
O=C(c1cc2c(s1)-c1ccccc1OC2)N1CCN(c2ccc(F)cc2)CC1 | -3.3% | -23.9%
CCCn1cc(S(=O)(=O)c2cccc(Cl)c2)c(=O)c2cc(F)c(N3CCOCC3)cc21 | u | -20.4%
Cc1cccc(C(=O)Nc2c(C(=O)N3CCN(c4ccc(F)cc4)CC3)oc3ccccc23)c1 | 4.5% | u
CCOc1ccc(Cc2nccc3cc(OCC)c(OCC)cc23)cc1OCC | x | u
COc1ccc(Cl)cc1CNCCSc1nnnn1-c1ccccc1 | -81.7% | -1.6%
Cc1ccc(C(=O)NCCn2c(C)cc3ccccc32)cc1C | -3.5% | u
Cc1nnc2c3ccccc3nc(Nc3ccccc3C(=O)O)n12 | -121.6% | -26.9%
Cc1ccsc1CCN1C(=O)N(c2ccc(F)cc2)C(=O)C1CC(=O)Nc1ccccc1 (stereo not given) | u | u
CC(C)n1c(/C=C/[C@@H](O)C[C@@H](O)CC(=O)O)c(-c2ccc(F)cc2)c2ccccc21 | x | 8.1%
COC(=O)c1ccc(NC(=O)CCS(=O)(=O)c2ccc(Br)cc2)cc1 | -18.7% | -19.3%
CCOc1cc(C(=O)Nc2ccc3oc(-c4ccc(F)cc4Cl)nc3c2)cc(OCC)c1OCC | 3.7% | -2.8%
CCOc1ccc(NC(=O)Cn2c(CCC(=O)O)ccc2-c2ccc(Cl)cc2)cc1 | 24.4% | 0.1%
Cc1nn2c(C(F)(F)F)cc(-c3ccc(OC(C)C)cc3)nc2c1C#N | u | -7.5%
O=C(OCc1cc(=O)n2nc(C3CC3)sc2n1)c1ccc(F)cc1 | 34.1% | 18.6%
O=c1c(N2CCc3ccccc3C2)csc2ccc(Cl)cc12 | -13.2% | 14.1%
O=C(O)P(=O)(O)O | x | 5.7%
CCOc1ccccc1C1Nc2ccccc2-c2nnc(SCc3ccccc3)nc2O1 (stereo not given) | 14.7% | -3.3%
COc1ccc2nc3sc(C(=O)Nc4cc(Cl)c(OC)cc4OC)cc3cc2c1 | -5.9% | 19.5%
CC(C)c1ccc(OCC(O)CN2CCN(c3ccc(F)cc3)CC2)cc1 (stereo not given) | u | -29.4%

The listing continues:
SMILES | PMP22 txn prim | HTT prom inh
Cc1ccc2c(c1)C(c1ccc(F)cc1)N(C(=O)c1cccc(C(F)(F)F)c1)CC(=O)N2 (stereo not given) | -28.3% | u
CCSc1nc(-c2ccccc2OC)nc2c1Cc1c(CO)cnc(C)c1O2 | -22.4% | u
Cc1c(C)n(Cc2ccc(Cl)cc2)c2ccc(C(=O)N3CCN(c4ccccc4F)CC3)cc12 | u | u
COc1ccc(NC(=O)Cn2cc(C(=O)C3CC3)c3ccccc32)cc1 | -12.8% | -7.4%
COc1ccccc1NC(=O)N1CCN(c2ccc3nnc(-c4ccc(F)cc4)n3n2)CC1 | u | -16.0%
CNC(=O)c1ccc2c(C(=Nc3cccc(CN(C)C)c3)c3ccccc3)c(O)[nH]c2c1 | x | u
O=C(Nc1ccc(Cl)cc1F)c1oc(=O)c2ccccc2c1-c1ccccc1 | -4.4% | -16.4%
COc1ccccc1N1CCN(S(=O)(=O)c2c(C)nc3sc(C)c(C)n3c2=O)CC1 | -44.6% | -11.0%
CN(C(=O)CSc1nc2ccc(NC(=O)c3ccccc3)cc2s1)c1ccccc1 | u | u
O=C(CC1N=C2c3ccccc3N=C(SCc3ccccc3Cl)N2C1=O)NC1CCCCC1 (stereo not given) | u | u
Cc1ccsc1CN(C(=O)c1oc2ccccc2c1C)C1CCS(=O)(=O)C1 (stereo not given) | u | u
Cc1cccc(CC(=O)NCCc2sc3nc(-c4ccc(F)cc4)nn3c2C)c1 | -24.3% | -29.5%
CC(=O)N1CCc2cc(S(=O)(=O)NC(Cc3ccccc3)C(=O)Nc3ccc(Cl)cc3)ccc21 (stereo not given) | -10.3% | -25.7%
COc1ccc(Cn2c(CNC(=O)Cc3cccc([N+](=O)[O-])c3)nc3cccnc32)cc1 | u | -4.4%
CCCCCN1C(C(=O)c2ccccc2)=C(NC(C)=O)c2ccccc2S1(=O)=O | 10.0% | u
COc1cc(NC(=O)NCC2CCN(Cc3ccc(C)cc3)CC2)cc(OC)c1OC | -8.7% | -21.7%
CC(C)c1ccc(N(CC(=O)O)S(=O)(=O)c2ccc3[nH]c(=O)c(=O)[nH]c3c2)cc1 | -7.1% | -0.1%
CCc1ccc(NC(=O)Cn2c(=O)nc(-c3ccccc3F)c3cc(Cl)ccc32)cc1 | 4.1% | 23.4%
COc1ccc(CNC(=O)CCCCCn2c(=O)[nH]c3ccccc3c2=O)cc1 | -15.0% | -11.3%
CCn1c(=O)sc2cc(NS(=O)(=O)c3ccc(F)c(C)c3)ccc21 | u | 14.1µM*
Cc1ccc(-n2ncc3c(NC(C)c4ccccc4)ncnc32)cc1 (stereo not given) | 5.0% | -11.2%
CCCN(CCC)S(=O)(=O)c1ccc(C(=O)O)cc1 | x | 1.6%

Quoted at random: 6 compounds from above.
SMILES | PMP22 txn prim | HTT prom inh
O=C(CC1N=C2c3ccccc3N=C(SCc3ccccc3Cl)N2C1=O)NC1CCCCC1 (stereo not given) | u | u
COc1ccc(CNC(=O)CCCCCn2c(=O)[nH]c3ccccc3c2=O)cc1 | -15.0% | -11.3%
CCCN(CCC)S(=O)(=O)c1ccc(C(=O)O)cc1 | x | 1.6%
Cc1ccc2c(c1)C(c1ccc(F)cc1)N(C(=O)c1cccc(C(F)(F)F)c1)CC(=O)N2 (stereo not given) | -28.3% | u
COc1ccccc1NC(=O)N1CCN(c2ccc3nnc(-c4ccc(F)cc4)n3n2)CC1 | u | -16.0%
CCn1c(=O)sc2cc(NS(=O)(=O)c3ccc(F)c(C)c3)ccc21 | u | 14.1µM*

Outcome played no part in choosing rows; 2.4% or so of the library scored in one or more.
